# Calb FLC: C. albicans growth inhibition with fluconazole, primary screen, CaCi-2 strain, Alamar Blue fluorescence; C. albicans CaCi-2 (fluconazole-resistant clinical isolate) + fluconazole, 48 h; 0.57% of 300,000 active; growth inhibition, % (no concentration beside the values);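 active = most replicates above 75%; inconclusive = exactly half above 75%; inactive = most below 75%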;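 also: all wells also contain fluconazole at 8 µg/ml as a sub-toxic cotreatment; 0% = median of DMSO wells and 100% = median of geldanamycin control wells; wells of about 8 µL received 7.5 nL stock; the first replicate is given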
# LANA-H2A inh: blockers of LANA interaction with H2A/H2B – biochemical, FP readout, HTS, primary screen; Protein LANA1 (Human herpesvirus 8 type P (isolate GK18)), Q9QR71; cell-free LANA-H2A/H2B peptide, fluorescence polarization; inhibition, % (no concentration beside the values); 0.6% of 320,000 active; AID 2629, 2010; in the data active = inhibition mostly above about 10%, no sharp cut-off; inactive = mostly below about 6.7%;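 also: stock transfer was 7.5 nL into about 10 µL; 0% = median of vehicle wells and 100% = median of positive control wells; one replicate is shown; the record names a cut of 25% in any replicate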
# AF4-AF9 inh: inhibitors of AF4 peptide binding to AF9, primary screen, biochemical, AlphaScreen, biotin-AF4 peptide, FLAG-AF9, single point | inhibition, % at 10 µM | AID 651704, 2012 | Protein AF-9 (Homo sapiens), P42568 | 0.47% of 350,000 active;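 active = every replicate reaching a set inhibition limit, whatever the replicate mean, cut at about 25% in these data; inconclusive = mean inhibition reaches that limit but some replicates miss it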;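 also: 0% = plate neutral control median and 100% = total signal loss; the record names both 10 and 1 µM as test concentration; the first replicate is given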
# Target sequence (P42568 whole entry, looked up): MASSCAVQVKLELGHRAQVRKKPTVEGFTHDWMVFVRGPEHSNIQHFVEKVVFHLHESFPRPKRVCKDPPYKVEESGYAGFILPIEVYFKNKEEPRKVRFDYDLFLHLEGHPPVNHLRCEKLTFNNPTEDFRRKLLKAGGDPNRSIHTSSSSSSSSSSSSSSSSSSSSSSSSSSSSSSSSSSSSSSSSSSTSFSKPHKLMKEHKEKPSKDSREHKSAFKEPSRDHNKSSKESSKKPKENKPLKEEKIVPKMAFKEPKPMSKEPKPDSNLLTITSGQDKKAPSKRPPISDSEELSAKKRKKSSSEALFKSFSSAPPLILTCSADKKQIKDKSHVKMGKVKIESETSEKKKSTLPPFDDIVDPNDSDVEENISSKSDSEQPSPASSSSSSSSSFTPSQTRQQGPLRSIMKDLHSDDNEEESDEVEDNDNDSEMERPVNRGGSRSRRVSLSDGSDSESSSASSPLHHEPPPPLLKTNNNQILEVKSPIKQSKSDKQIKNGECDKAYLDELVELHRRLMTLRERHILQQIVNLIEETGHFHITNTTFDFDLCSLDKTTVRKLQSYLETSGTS
# Bfl-1 A1 inh: caspase 3/7 activation in MEF A1-2A-BIM cells, primary screen, A1 inhibitor project, cell-based, luminescence, HTS; Caspase-Glo 3/7 luminescence, 3 h; percent of clofoctol response, vehicle zero; caspase activation, % (concentration not given with the values); 0.066% of 330,000 active;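 active = over half of replicate activation scores above 10%, or exactly half above 10 with the replicate mean above 10; inconclusive = replicate mean below 10 yet half the replicates above 10; inactive = over half of replicates below 10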;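 also: wells of about 30 µL received 50 nL stock; many hits fall short of the cut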
# T cruzi inh: inhibitors of intracellular T. cruzi growth, primary screen, luminescence, NIH3T3 host cells | T. cruzi beta-gal in NIH3T3, 90 h | inhibition, % (test concentration not listed) | 1.4% of 300,000 active | AID 1885, 2009;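 active = mean inhibition across valid replicates above about 55%, limit read from the data; inconclusive = mean below that limit but half or more replicates reach it; inactive = mean below it, under half of replicates reach it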;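 also: signal also drops with host cell toxicity which is not excluded here; 0% = plate median of DMSO wells and 100% = zero luminescence signal; higher percent means less beta-gal luminescence so fewer parasites; stock transfer was 50 nL into about 50 µL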
# Vif TR-FRET: inhibitors of Vif binding to APOBEC3G peptide, primary screen, biochemical, TR-FRET, GST-Vif 1-94, biotin-A3G peptide, dose response retest (AID 1117319). Virion infectivity factor (Human immunodeficiency virus type 1 group M subtype B (isolate …. TR-FRET GST-Vif / biotin-A3G peptide binding; higher % means a stronger effect; test concentration not given here; strong numbers were not always called active. inhibition, %; hits with a dose series show IC50 in µM. 0.57% of 260,000 active;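 active = above the screen mean plus three standard deviations and confirmed in dose response; inconclusive = results disagree or hit not tested in dose response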;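 also: Vif residues 1-94 fused to GST binding biotinylated APOBEC3G peptide 110-148; 0% = full assay without inhibitor and 100% = GST in place of GST-Vif; retest series ran down from 100 µM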
# Beta apoptosis: inhibitors of cytokine-induced beta cell apoptosis, primary screen, luminescence. INS-1E cytokine-induced death, ATP luminescence, 48 h; percent of positive-control rescue, neutral wells zero. protection from apoptosis, % (concentration not given with the values). 0.8% of 300,000 active;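 active = all replicates at 75% or more, or half of them and the mean; inconclusive = half reach 75% but not the mean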;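 also: 0% = cytokine-treated negative control wells and 100% = positive control rescue; higher means more ATP so stronger rescue from cytokine killing; wells of about 40 µL received 100 nL stock; the first replicate is given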
# RanGTP-Imp inh: inhibitors of RanGTP-importin-beta interaction, primary screen, biochemical, FRET, CFP-Ran, YFP-importin-beta, homogeneous; Ran GTPase (GTP-bound) - importin-beta complex; cell-free CFP-Ran/YFP-importin-beta FRET ratio; inhibition, % (no concentration beside the values); 1.1% of 300,000 active;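 active = most replicates above 15%; inconclusive = exactly half above 15%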;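 also: 0% = DMSO wells and 100% = Ran loaded with GDP instead of GTP; wells of about 40 µL received 100 nL stock; the first replicate is given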
# * marks the source's active call; other numbers are inactive results; ? = inconclusive; . = no result given; & = joins results of further samples.
SMILES,Calb FLC,LANA-H2A inh,AF4-AF9 inh,Bfl-1 A1 inh,T cruzi inh,Vif TR-FRET,Beta apoptosis,RanGTP-Imp inh
COc1ccc(OC)c(NC(=O)C(=O)NNC(=O)C23CC4CC(CC(C4)C2)C3)c1,-6,-0.9,-0.6,0.1,-8,0%,19,2.0
CCCCn1c(NC(=O)c2ccc(F)cc2)c(C#N)c2nc3ccccc3nc21,0,-7.1,.,-0.2,8,.,7,18*
COC(=O)c1cc(NS(=O)(=O)c2ccc(C)c3ccccc23)ccc1N1CCOCC1,14,-0.4,.,-1.3,0,.,4,-0.2
COc1ccccc1C(=O)NNC(=O)C(=O)Nc1cccc(Cl)c1C,43,4.7,-6.4,-1.2,22,.,4,-1.4
COc1cccc(CC2(CO)CCCN(Cc3ccccc3-c3ccco3)C2)c1 (stereo not drawn),-16,3.0,1.7,-1.0,26,-7%,6,-1.5
Cc1ccc(-c2ccc(=O)n(CC(=O)Nc3ccc4c(c3)OCCO4)n2)cc1,-13,-3.2,-2.2,-1.1,-11,.,-4,-4.8
Fc1ccc(-n2cnnn2)c(F)c1,2,-1.1,-39,0.1,-10,-2%,-3,-0.4
Cc1ccc(S(=O)(=O)N2CCN(CCC#N)CC2)cc1,-3,1.7,-1.4,0.3,-11,-2%,-3,0.9
CS(=O)(=O)N(Cc1ccc(C(=O)NC2CCCCC2O)cc1)c1ccccc1 (stereo not drawn),.,0.6,.,1.1,-21,4%,2,8.3
COc1ccc2cc(CCNS(=O)(=O)c3c(C)cc(C)cc3C)c(=O)[nH]c2c1,3,-0.3,1.1,-0.1,2,.,-8,-0.2
Oc1ccc(NCc2cccc(OCc3ccccc3)c2)cc1,-3,-0.1,5.2,-0.2,-6,2.1µM*,25,-1.9
CCOCCOC(=O)c1cccc2c1-c1ccccc1C2=O,9,1.8,1.4,0.7,0,0%,-9,1.5
CCOc1ccc(CCNC(=O)C2CC(=O)N(CCc3ccccc3)C2)cc1OCC (stereo not drawn),-1,-0.1,0.6,1.3,7,.,-3,-2.0
O=C1NC2(CCCCC2)C(=O)N1/N=C/c1ccccc1Br,11,2.5,2.6,-0.8,3,-2%,5,2.8
C=CCNC(=O)c1onc(CSc2ccccc2)c1C(=O)O,-12,-1.8,-0.2,-1.7,-13,-3%,0,-2.2
O=C(Nc1ccccc1C(=O)N1CCOCC1)C1CC(=O)N(c2ccc(F)cc2)C1 (stereo not drawn),0,-1.1,0.4,-0.5,1,.,-8,0.7
COc1ccc(N(CC(=O)NC2CCCCC2)C(=O)CCCC(=O)Nc2ccccn2)cc1,-8,-0.8,2.0,-0.3,8,.,6,5.3
Cc1ccc(CCNC(=O)CCNS(=O)(=O)c2ccc3c(c2)oc(=O)n3C)cc1,-12,1.4,.,0.4,10,1%,-5,0.0
c1ccc(Cn2c(-c3cncs3)nc3ccccc32)cc1,19,-2.0,.,-1.7,8,-7%,-2,4.4
CCN(CC)C(=O)N1CCC(NC(=O)Cc2ccccc2)CC1,-13,5.7,.,-0.5,-11,33%,5,4.2
Cc1ccc(C(=O)NNC(=O)C2CCN(Cc3ccc(Cl)c(Cl)c3)CC2)cc1,-7,2.1,.,-0.1,.,-3%,5,-3.1
O=C1NC(c2cn(-c3ccccc3)nc2-c2cccs2)C(C(=O)c2cccnc2)C(O)(C(F)(F)F)N1 (stereo not drawn),-2,-0.9,.,0.1,0,1%,-14,0.5
c1cn2cc(-c3ccc4c(c3)OCO4)nc2s1,-5,-1.1,.,.,-6,?,1,-5.1
Cc1ccccc1NC(=O)/C=C/c1cccc(C(F)(F)F)c1,-3,-2.7,-19,-1.3,-2,0%,5,?
NS(=O)(=O)c1cccc(NC(=O)COC(=O)CCc2ccccc2)c1,-3,-4.5,0.6,0.0,-3,.,5,?
CC1CN(C(=O)c2ccncc2)CC(C)O1 (stereo not drawn),2,0.8,.,0.1,-24,17%,-3,-1.1
COc1ccc(CN2CCCC2C(=O)Nc2ccc(OC)c(OC)c2)cc1OC (stereo not drawn),-1,9.2,.,0.4,-12,5%&22%,.,2.1
NC(=O)C1CCN(C(=O)CCCCCn2c(=O)[nH]c3ccsc3c2=O)CC1,-1,-1.0,.,0.1,-5,4%,-5,-1.4
CCOC(=O)CSc1cc(CS(C)(=O)=O)nc(-c2ccccn2)n1,-14,-3.0,-3.1,-0.4,-9,-4%,-7,-3.6
O=C(Cc1ccc(Br)cc1)Nc1ccccc1N1CCCC1,-1,-4.5,4.6,0.9,8,0%,-3,1.7
COc1cc(NC(=O)C/C(C)=N/NC(=O)c2ccccn2)c(OC)cc1Cl,6,2.0,0.0,0.2,-5,.,-3,0.7
O=C(NCCCN1CCOCC1)c1cc2nc(-c3ccco3)cc(C(F)(F)F)n2n1,1,1.9,-2.2,0.5,1,6%,-5,8.3
COC(=O)c1c(-c2ccc(OC)cc2)sc2cc(OC)c(OC)cc12,.,-5.1,2.1,1.3,.,.,3,.
CCn1c(SCC(=O)Nc2nc3ccccc3s2)nnc1-c1ccc(Br)cc1,-1,-0.1,.,-1.0,-12,-5%,-3,3.8
O=C(NNS(=O)(=O)c1ccc([N+](=O)[O-])cc1)c1cnn(-c2ccccc2)c1-n1cccc1,-10,0.8,.,0.4,1,7%,-4,4.8
CN1CCN(CC(O)COc2ccc(OCC(O)CN3CCN(C)CC3)cc2)CC1 (stereo not drawn),7,-0.3,.,1.3,8,2%,1,-0.9
CC1CCN(S(=O)(=O)c2cccc(C(=O)NCc3ccco3)c2)CC1,6,1.5,.,0.3,14,6%,-3,3.3
CCCc1cc(=O)n2[nH]c(-c3ccco3)nc2n1,14,-0.1,5.6,-0.1,-12,8%,-5,5.3
O=C(CN(C(=O)c1csnn1)c1ccccc1)NCc1ccc2c(c1)OCO2,-9,1.7,-0.9,0.9,-6,.,0,3.6
CCN(CC)CCNCc1ccc(Br)cc1OCC(=O)NCc1ccccc1,6,-0.7,0.2,0.1,5,7%,-1,5.0
COc1cc2ccccc2cc1C(=O)NCC(c1cccs1)N(C)C (stereo not drawn),-7,-3.4,4.7,-1.8,2,6%,-1,-1.8
O=C(NC1CCCCCCC1)c1ccc(S(=O)(=O)N2CCCC2)cc1,-17,1.0,.,-0.1,2,13%,5,-0.5
Cc1cccc(-n2ncc3c2CCCC3NC(=O)Cn2cccn2)c1C (stereo not drawn),5,-1.8,-0.1,0.3,-8,.,0,-2.6
CCOC(=O)c1oc2ccc(OC)cc2c1NC(=O)CN1CCN(C)CC1,-1,4.1,.,0.3,5,-4%,.,4.0
COC(CNC(=O)C1CCCN(S(=O)(=O)c2c(C)noc2/C=C/c2cccs2)C1)OC (stereo not drawn),30,-0.1,-2.0,-0.8,9,7%,3,-1.4

# Part of the list above, as tab-separated lines.
smiles	Calb FLC	LANA-H2A inh	AF4-AF9 inh	Bfl-1 A1 inh	T cruzi inh	Vif TR-FRET	Beta apoptosis	RanGTP-Imp inh
CCCCn1c(NC(=O)c2ccc(F)cc2)c(C#N)c2nc3ccccc3nc21	0	-7.1	.	-0.2	8	.	7	18*
COC(=O)c1cc(NS(=O)(=O)c2ccc(C)c3ccccc23)ccc1N1CCOCC1	14	-0.4	.	-1.3	0	.	4	-0.2

# (continued)
SMILES,Calb FLC,LANA-H2A inh,AF4-AF9 inh,Bfl-1 A1 inh,T cruzi inh,Vif TR-FRET,Beta apoptosis,RanGTP-Imp inh
O=C(CCCC(=O)c1ccccc1)Nc1ccc(F)cc1,5,-8.7,-4.7,0.6,-2,.,-3,1.7
CCCCNc1c(-c2ccc(OC)c(SC3CCCCC3)c2)nc2cc(C)ccn12,1,0.2,.,-0.4,36,.,18,5.5
Cc1ccc(C(=O)NNC(=O)c2ccncc2)cc1[N+](=O)[O-],.,3.1,-2.4,0.0,.,.,-14,.
Cc1cccc(C)c1OCc1cc(C(=O)NCC2CCCCC2)no1,6,5.1,-2.5,0.0,-7,.,-4,2.1
COc1ccc(CNCCCSc2ncccn2)cc1OC,-9,-18,4.1,-0.7,25,.,0,0.5
Cc1cc(NC(=O)CSc2nnc(-c3cccnc3)n2C2CCCCC2C)no1 (stereo not drawn),-6,-0.2,.,1.7,4,-6%,1,1.0
CCOc1ccc2nc(Cl)c(C3CC(c4ccco4)=NN3S(=O)(=O)c3ccccc3)cc2c1 (stereo not drawn),-3,-1.4,.,0.5,-13,10%,2,-1.4
CS(=O)(=O)N(CC(=O)NCCSCc1c(F)cccc1Cl)c1ccc2c(c1)OCO2,.,5.4,.,-1.1,20,8%,-1,-0.7
COc1ccccc1NC(=O)Nc1ccc2c(c1)CCC2,-8,2.8,-1.2,-4.4,7,1%,3,6.8
CCOC(=O)CCc1c(C)n(CC)c2cc(-c3ccccc3OC)nn2c1=O,-5,1.4,.,-0.8,3,5%,1,2.1
COc1ccc(NC(=O)CCNS(=O)(=O)c2ccc3c(c2)c(=O)n(C)c(=O)n3C)c(OC)c1,4,4.2,.,1.1,-7,10%,4,1.7
CCOc1cc(/C=C/c2cccc[n+]2C)ccc1OCC(=O)Nc1ccc(C)cc1,-31,-2.3,4.8,1.2,0,.,10,-2.6
CN(C)CCCN1CC(=O)N2[C@@H](Cc3c([nH]c4ccccc34)C2(C)C)C1=O,8,-1.2,-1.7,1.5,10,0%,-5,-0.6
CCc1ccc(-c2csc3nc[nH]c(=O)c23)cc1,-8,0.7,-2.0,-1.9,?,.,-3,-0.5
COc1cc(C(=O)NCCCN2CCCC2=O)cc(OC)c1OC,-3,2.2,5.1,0.4,-11,6%,-4,4.2
CC(O)C(NC(=O)OCc1ccccc1)C(=O)OCc1ccccc1 (stereo not drawn),.,4.0,-1.9,0.6,.,-10%,-6,.
O=C(CN(Cc1ccc(F)cc1)S(=O)(=O)c1ccc(S(=O)(=O)N2CCOCC2)cc1)Nc1ccccc1,-7,3.5,-4.1,-0.3,-9,?,-5,-1.8
CCN1C(=NCCc2c[nH]c3ccccc23)N[C@@H](c2ccccc2)[C@H](C(=O)OC)[C@H]1C,-5,-0.2,0.0,0.0,-3,.,-2,4.0
COc1ccc(/C=C/C(=O)OCC(=O)NCCCc2ccccc2)cc1OC,.,-2.3,-0.3,-0.9,.,.,-7,.
COc1ccc(C(=O)NNC(=S)NC(=O)c2cccc([N+](=O)[O-])c2)cc1,81*,9.4,-4.5,0.9,-2,.,14,2.6
COc1ccc(-c2cc(C(F)(F)F)nc(S(=O)(=O)CCC(=O)N3CCOCC3)n2)cc1,26,0.3,.,0.0,-43,-1%,-22,2.1
O=C(CN1CCCCCC1)Nc1ccc(Br)cc1[N+](=O)[O-],5,-0.9,5.7,0.0,2,.,.,-0.8
[S-]c1nnc(-c2ccc(Br)cc2)n1-c1ccccc1.[Zn+2],-5,-1.1,10.0,0.4,-3,.,.,-3.0
COc1ccc(-c2nc3cc(C)ccn3c2NC(=O)c2ccccc2OC)cc1,.,1.2,-6.2,-0.8,7,-3%,10,-0.5

# Compound activity deposited in PubChem BioAssay by several laboratories.
